Vaccinia Venus: inhibitors of vaccinia virus (Venus reporter) | Vaccinia virus Venus reporter expression, fluorescence | Potency, µM (doses to about 36.5 µM), without a hit: at the highest dose activity change, negative = inhibition, most hits filed as inhibitors | hit rate 0.46% among 330,000 | AID 720580; active means well fitted inhibition curve with a large enough effect; inconclusive means small, poorly fitted or top-dose-only effect; inactive means no such curve, though single readings can be large or run the other way; tested in A549 cells; further: nearly all actives have a fitted effect of over 30% in size; inactives centre near -10
VACV mCherry inh: inhibitors of vaccinia virus infection (mCherry reporter signal); Potency, µM (doses to about 36.5 µM), for inactives: at the highest dose activity change, negative = inhibition, most hits filed as inhibitors; hit rate 0.63% among 310,000; Vaccinia virus mCherry reporter infection, fluorescence; about a quarter of the inactives have no number; AID 720579; active = well fitted inhibition curve with a large enough effect; inconclusive = small, poorly fitted or top-dose-only effect; inactive = no such curve, though single readings can be large or run the other way; tested in A549 cells; further: nearly all actives have a fitted effect of over 35% in size; inactives centre near -10
Numbers without * were called inactive; i = inactive; ? = inconclusive; . = no result given; & = joins results of further samples; [ ] = another dose, or the depositor's remark. On the % scale 0 is the no-effect control and ±100 the full control effect; potency means the concentration at half of the fitted maximal effect.

| Molecule | Vaccinia Venus | VACV mCherry inh |
| --- | --- | --- |
| O=C(Nc1ccccc1N1CCN(C(=O)c2ccccc2)CC1)c1ccc(Cl)cc1 | -16% | -13% |
| C[C@H](NC(=O)Cc1ccccc1)C(=O)N1CCC2(CC1)NCCc1[nH]cnc12 | -2% | i |
| CN(CC(=O)NCC1CCCCC1)CC(=O)Nc1ccccc1Br | -7% | i |
| COc1ccc(OC)c(NC(=O)CC2C(=O)NCCN2C(=O)c2ccccc2)c1 (stereo not drawn) | -8% | 2% |
| CCN(CCS(=O)(=O)c1ccc(Cl)cc1)Cc1nc2ccccc2c(=O)[nH]1 | ? | ? |
| CCOc1ccc(NC(=O)CSc2nnc3c(n2)[nH]c2ccc(S(=O)(=O)N4CCCCC4)cc23)cc1 | -15% | -25% |
| CCS(=O)(=O)N1CCC2(CC1)OC(=O)C(C)=C2C(=O)NCc1ccc(OC)c(OC)c1 | -1% | -11% |
| Cc1ccc2nc(SCC(=O)Nc3cccnc3Cl)[nH]c2c1 | -7% | i |
| O=C(NC(Cc1c[nH]c2ccccc12)C(=O)Nc1ccc(F)cc1)c1cccs1 (stereo not drawn) | 13% | ? |
| Cc1[nH]c2ccccc2c1/C=C(\C#N)C(=O)NCc1ccccc1 | -16% | i |
| COCCn1c(C)cc(C(=O)COC(=O)c2ccccc2Br)c1C | -9% | -10% |
| O=C(CSCc1ccc(F)cc1)N1CCc2c([nH]c3ccccc23)C1c1ccc(F)cc1 (stereo not drawn) | -24% | -25% |
| CC(=O)Nc1cc(-c2cccc(NS(C)(=O)=O)c2)cn2c(-c3ccccc3)cnc12 | -17% | 13% |
| CCOC(=O)c1[nH]c(C)c(CCC(=O)Nc2cccc(SC)c2)c1C | -19% | -16% |
| Cn1c(C(=O)NC2CC2)cc2c(=O)n(C)c3ccccc3c21 | -10% | -11% |
| CCN(CC)S(=O)(=O)c1ccc(C)c(NS(=O)(=O)c2cc(/C=C/C(=O)O)cc(OC)c2OC)c1 | -13% | -1% |
| CCOc1ccc(NC(=O)C(C)Sc2nnnn2C)cc1 (stereo not drawn) | -13% | i |
| O=C(Cc1cccs1)N1CCN(c2ccccn2)CC1 | -13% | . |
| Cc1ccc(CCNC(=O)CCc2nc3ccccc3[nH]2)cc1 | -5% | -28% |
| O=C(CNC(=O)c1ccco1)OCC(=O)c1ccccc1Cl | -5% | i |
| O=C(NC1CCSc2ccccc21)c1cc(S(=O)(=O)N2CCOCC2)ccc1Cl (stereo not drawn) | -4% | i |
| COc1ccc(S(=O)(=O)N2CCCCCC2)cc1C(=O)OCC(=O)NC(N)=O | -10% | . |
| CCC(C)(C)NC(=O)Cn1c(=O)ccc2cc(S(=O)(=O)N3CCC(C)CC3)ccc21 | -4% | -9% |
| CC(C)COc1ccc(C(=O)OCCN2CCOCC2)c(O)c1 | -20% | . |
| COc1ccc(CN(C)Cc2cc(=O)oc3cc(C)c(C(C)C)cc23)cc1OC | 0% | -27% |
| Cc1ccc(NC(C)C(=O)N/N=C/c2ccc([N+](=O)[O-])s2)cc1 (stereo not drawn) | ? | ? |
| c1ccc(SCCCCNC2CCCC2)cc1 | -9% | -12% |
| COc1cc(/C=C/C(=O)OCC(=O)Nc2cc(S(=O)(=O)N3CCCC3)ccc2Cl)cc(OC)c1OC | -9% | i |
| CC1CN(Cc2nc3c(c(=O)n(C)c(=O)n3C)n2CCc2ccccc2)CC(C)O1 (stereo not drawn) | 0% | . |
| O=C(CN1C(=O)COc2ccc(Cl)cc21)Nc1nccs1 | 0% | -14% |
| Cc1cc(C)nc(SC(C)C(=O)N/N=C/c2cccs2)n1 (stereo not drawn) | -14% | -9% |
| COc1ccccc1N(CC(=O)NC1CCCCC1)C(=O)Cn1nnc(-c2ccc(C)o2)n1 | -6% | 0% |
| O=C(OCC(=O)N1CCCCCC1)c1ccc(Br)c(S(=O)(=O)N2CCOCC2)c1 | -11% | -23% |
| Cc1ccc(N2CCN(S(=O)(=O)c3ccc4[nH]c5c(c4c3)CCCCC5)CC2)c(C)c1 | -3% | -10% |
| COc1ccc(-c2c3c(=O)n(C)c(=O)n(C)c3c3c(-c4ccccc4)nc4ccccc4n23)cc1 | 4% | -3% |
| CC(C)C[C@@H](C)C(=O)N(Cc1ccccc1)c1ccccc1 | -3% | i |
| COCOc1cc(O)c(C(=O)/C=C/c2ccc(OCOC)c(OCOC)c2)c(OCOC)c1 | 4% | 6% |
| COc1ccc(-c2ccc3c(c2)c(C#Cc2ccsc2)c(-c2cc(OC)cc(OC)c2)n3C)cc1 | -17% | i |
| S=C(Nc1ccc2cn[nH]c2c1)Nc1ccccc1Cl | -9% | -10% |
| CCNC(=O)c1ccc2nc(Cc3ccccc3)oc2c1 | 6% | 5% |
| CC(=O)Nc1cccc(-c2csc(C(NC(C)=O)c3ccc(F)c(F)c3)n2)c1 (stereo not drawn) | -1% | 53%[activator] |
| CCOc1ccccc1CNC(=O)C(C)n1nc(C)c2c(C)n(-c3ccccc3)nc2c1=O (stereo not drawn) | -13% | -9% |
| Cc1ccccc1NC(=O)c1sc2nc3c(c(-c4ccco4)c2c1N)CCC3 | -10% | i |
| COc1nc(N)nc(N)c1NS(=O)(=O)c1ccc(C)cc1 | -6% | -2% |
| CCOc1ccc(NC(=O)CSc2ncc3c(n2)-c2ccc(Cl)cc2N(Cc2ccccc2)S3(=O)=O)cc1 | -20% | -25% |
| CC1(C)OC2CC3C4CCC5=CC(=O)CCC5(C)C4(F)C(O)CC3(C)C2(C(=O)CO)O1 (stereo not drawn) | -20% | -26% |
| COc1ccc(CCNCc2ccc3c(c2)n(C)c(=O)n3C)cc1OC | 9% | 4% |
| CCCN(CCC)C(=O)Cn1c(=O)n(CCCCC(=O)NCc2ccco2)c(=O)c2ccccc21 | -3% | . |

Reprinted at random: two records from the list, in no set order.
| Molecule | Vaccinia Venus | VACV mCherry inh |
| --- | --- | --- |
| CCOc1ccccc1CNC(=O)C(C)n1nc(C)c2c(C)n(-c3ccccc3)nc2c1=O (stereo not drawn) | -13% | -9% |
| CCOc1ccc(NC(=O)CSc2ncc3c(n2)-c2ccc(Cl)cc2N(Cc2ccccc2)S3(=O)=O)cc1 | -20% | -25% |

The listing continues.
| Molecule | Vaccinia Venus | VACV mCherry inh |
| --- | --- | --- |
| O=C(O)c1cccc(Cn2c(Cl)c(/C=N/NC(=O)c3ccc(O)cc3)sc2=O)c1 | -13% | -5% |
| CCCC(=O)Nc1cc(C(=O)NCc2ccccc2)ccc1S(=O)(=O)c1ccc(Cl)cc1 | -2% | -3% |
| O=C(CCSc1nc(-c2ccccc2)c(-c2ccccc2)o1)N1CCCCC1 | -1% | -4% |
| Cn1nc(C(C)(C)C)c(NC(=O)c2cccs2)c1C(C)(C)C | -2% | -5% |
| CCCCNC(=O)Nc1ccccn1 | -19% | . |
| CC(=O)Nc1cc(C(=O)NCc2ccc(F)cc2)ccc1Sc1ccc(C)cc1 | -15% | -10% |
| CN(C)c1ccc(C(c2nnnn2C(C)(C)C)N2CCN(C(=O)c3ccco3)CC2)cc1 (stereo not drawn) | -9% | . |
| C[C@@H]1CCC[C@]2(O[C@@H](CCO)C[C@@H](O)[C@@H]2O)O1 | -14% | -30% |
| CC[C@@H]1Cc2[nH][nH]c(=O)c2[C@@H](c2ccc(F)cc2)O1 | -8% | -9% |
| CC(=O)Nc1ccc(NC(=O)COc2ccc(S(=O)(=O)NC(C)c3ccccc3)cc2)cc1 (stereo not drawn) | -20% | -4% |
| CCN1C(=O)c2cccc3c(S(=O)(=O)N(C(=O)c4cccnc4)c4ccc(OC)cc4)ccc1c23 | ? | -26% |
| O=C(NCCc1ccccn1)c1nc(Cn2ccc([N+](=O)[O-])n2)no1 | -7% | -17% |
| Cc1cc([N+](=O)[O-])ccc1N(C)C | 4% | 3% |
| c1ccc(-c2cn(-c3ccccc3)c3ncnc(N4CCN(c5ccccc5)CC4)c23)cc1 | -10% | -18% |
| Cc1ccc(-n2ncc(C(=O)NCC3CCN(C4CCCC4)C3)c2C2CCN(C(=O)OC(C)(C)C)CC2)cc1C (stereo not drawn) | -23% | -13% |
| O=[N+]([O-])c1ccccc1-c1ccc(CN2CCN(c3ccccc3)CC2)o1 | -3% | -14% |
| O=C(N/N=C/c1ccccc1)c1ccco1 | -10% | -15% |
| CCCCCc1nc(N)c(C#N)c(-c2ccco2)c1CCCC | -8% | -1% |
| CCn1c(C(=O)Nc2c(C)cccc2C)cc2sc(Cl)cc21 | -12% | -11% |
| O=C(NN=C1C2CC3CC(C2)CC1C3)c1cccs1 | -1% | -10% |
| CCNc1nc(N)nc(Oc2ccc(OCc3ccccc3)nn2)n1 | -7% | -17% |
| Cc1cccc(C)c1-n1ncc(C(=O)NC2CCCC2)c1C1CCN(C(=O)OC(C)(C)C)CC1 | -6% | 12% |
| COc1ccc(-c2cc(C(=O)NCC(c3ccco3)N(C)C)c3ccccc3n2)cc1OC (stereo not drawn) | -19% | -2% |
| CC[C@]1(C(=O)OC)[C@H]2C(=O)N(C)C(=O)[C@H]2[C@H]2CN(C)C(=NCc3ccccc3)N21 | 4% | -20% |
| COC(=O)[C@]1(Cc2ccccc2)N[C@H](CN(C)S(=O)(=O)c2ccc(F)cc2)[C@@H]2C(=O)N(C)C(=O)[C@@H]21 | -8% | -18% |
| CCn1nc(C)c(CNC(=O)c2cc(COc3cncc(Cl)c3)on2)c1C | 11%[7.34 µM] | -7%[7.34 µM] |
| COc1ccc(Cl)cc1C(=O)NNC(=O)CNC(=O)c1ccc(C)s1 | 2% | -15% |
| CCc1ccccc1NC(=O)CN(C)C(=O)COc1ccc(C)nc1[N+](=O)[O-] | -14% | -12% |
| Cc1ccc(-c2csc(NC(=O)c3ccc(F)cc3)c2C(=O)O)cc1 | -20% | -13% |
| COC(=O)Cn1cnc2sc(C)c(S(=O)(=O)N3CCN(c4ccccc4OC)CC3)c2c1=O | 6% | -2% |
| Cc1cc(C)n(/N=C/c2cccc(O)c2)c(=O)c1C(N)=O | -9% | . |
| CC(C)c1ccc(N2C(=O)NC(=O)/C(=C\C=C\c3ccco3)C2=O)cc1 | 37%[activator] | i |
| O=C1/C(=C/c2ccccn2)SC(=S)N1Cc1ccccc1 | 2% | -11% |
| CCc1nnc(NC(=O)[C@@H](NC(=O)c2cccc(S(=O)(=O)N3CCOCC3)c2)C(C)C)s1 | -7% | . |
| C=C(C)CNC(=S)N/N=C(\C)c1ccc(Cl)s1 | -12% | -17% |
| CCOc1ccc(-c2nnn(CC(=O)N3CCCC3)n2)cc1OCC | -13% | -18% |
| Cc1cccc(C)c1NC(=O)C1(C)CSCC(=O)N1CC(F)(F)F (stereo not drawn) | -15% | i |
| CCOc1ccccc1NC(=O)C(NC(=O)C1CCC(C)CC1)C(C)C (stereo not drawn) | -5% | -4% |
| CC(C(=O)NCc1cccc(Cl)c1)N1C(=O)c2ccccc2C1=O (stereo not drawn) | 0% | -2% |
| CC(C)(C)C1CCc2onc(C(=O)Nc3ccc(F)cc3F)c2C1 (stereo not drawn) | -8% | i |
| Cc1ccc2c(c1)Sc1ccccc1CC2=O | -23% | . |
| O=C(c1cnn2ccccc12)N1CCc2ccccc21 | -16% | -1% |
| Cc1cccc(NC(=O)CN(C2=NC3CS(=O)(=O)CC3S2)c2ccccc2F)c1 (stereo not drawn) | 6% | i |
| O=C(CCNC(=O)c1ccc([N+](=O)[O-])cc1)NCCCN1CCCC1=O | -11% | -1% |
| O=C(NCCN1CCN(c2cccc(Cl)c2)CC1)c1ccc(CSc2nc3ccncc3[nH]2)cc1 | -15% | -11% |
| O=C(O)c1cccc2c1C(=O)N(C1CCCCC1)C2 | 6% | -8% |
| COc1ccc(NC(=O)CCNS(=O)(=O)c2cccc3nonc23)c(OC)c1 | -13%&2% | -8%&-1% |
| CCOC(=O)c1c(SCC(=O)Nc2nc3ccccc3s2)nc(=O)[nH]c1C | -11% | -5% |

Four successive records already listed, quoted:
| Molecule | Vaccinia Venus | VACV mCherry inh |
| --- | --- | --- |
| O=C(Cc1cccs1)N1CCN(c2ccccn2)CC1 | -13% | . |
| Cc1ccc(CCNC(=O)CCc2nc3ccccc3[nH]2)cc1 | -5% | -28% |
| O=C(CNC(=O)c1ccco1)OCC(=O)c1ccccc1Cl | -5% | i |
| O=C(NC1CCSc2ccccc21)c1cc(S(=O)(=O)N2CCOCC2)ccc1Cl (stereo not drawn) | -4% | i |

Further structures
| Molecule | Vaccinia Venus | VACV mCherry inh |
| --- | --- | --- |
| CCOC(=O)CSc1nnc(C2CCCCC2)n1C | -5% | -8% |
| CN(C)c1ccc(NC(=O)CN2CCN(CC(=O)Nc3ccc(F)cc3)CC2)cc1 | -20% | i |
| Cc1csc(SC(C)C(=O)NCC2CCCCC2)n1 (stereo not drawn) | -1% | -14% |
| O=C1C(Cc2ccccc2)Nc2ncnc(N3CCOCC3)c2N1Cc1ccc(Cl)cc1 (stereo not drawn) | -16%&2% | 3% |
| O=C(NC1=NCCS1)c1cc(-c2cccc(Br)c2)nc2ccccc12 | -28% | -7% |
| CCOC(=O)c1c(NC(=O)C[n+]2ccc(Cc3ccccc3)cc2)sc(C)c1C | -1% | ? |
| CC1CCCCN1C(=O)CSc1nnc(-c2ccco2)n1C (stereo not drawn) | -2% | 25% |
| OCc1cnc(SCc2cccc(F)c2)n1Cc1ccc(F)cc1 | -7% | -14% |
| COc1cc(CNC(=O)Nc2nc(C(N)Cc3ccc(C(F)(F)F)cc3)cs2)cc(OC)c1OC (stereo not drawn) | -28% | -6% |
| COc1ccc(CCNC(=O)c2ccc3c(c2)nc2n3CCC(C)C2)cc1OC (stereo not drawn) | -10% | -12% |
| OC1CCCN(Cc2c3ccccc3cc3ccccc23)C1 (stereo not drawn) | -22% | i |
| CC(C)C(=O)Nc1cccc(-c2cn3ccsc3n2)c1 | -27% | . |

Screening data: PubChem BioAssay, National Center for Advancing Translational Sciences (NCATS)
